Source: PubChem (National Center for Advancing Translational Sciences (NCATS))
Cruzain Triton: qHTS Assay for Promiscuous and Specific Inhibitors of Cruzain (with detergent) | purified cruzain, Z-FR-AMC fluorescence, 0.01% Triton | Potency, µM, for the others: max response, negative = inhibition, hits mostly inhibitors | actives 0.43% (n = 200,000) | AID 1478, 2009;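 also: plate controls were neutral wells for no effect and buffer without enzyme for full effect; nearly all actives have a fitted effect of over 40% in size; top concentration of the series not given in the record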
Target sequence (P25779 123-467 limits assumed): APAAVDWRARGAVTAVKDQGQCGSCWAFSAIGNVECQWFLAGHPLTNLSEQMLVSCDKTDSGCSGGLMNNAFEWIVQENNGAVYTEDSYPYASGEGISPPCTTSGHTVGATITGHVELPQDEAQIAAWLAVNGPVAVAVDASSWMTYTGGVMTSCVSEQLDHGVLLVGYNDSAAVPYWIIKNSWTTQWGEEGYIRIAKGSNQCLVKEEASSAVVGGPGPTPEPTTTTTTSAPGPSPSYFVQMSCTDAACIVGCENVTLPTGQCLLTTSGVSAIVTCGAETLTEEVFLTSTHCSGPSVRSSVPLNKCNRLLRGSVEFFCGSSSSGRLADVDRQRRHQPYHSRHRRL
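Read-out: AMC fluorescence (360 nm excitation, 450 nm emission), four reads over 2 min, first-to-third difference used. Conditions: cruzain 1.5 nM, Z-FR-AMC 2 uM, pH 5.5 acetate, 5 mM DTT, 0.01% Triton X-100.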
2A StopGo: High Throughput Screening for Foot and Mouth Disease Virus Antivirals. human cells with a luciferase reporter of 2A StopGo recoding; control for the full effect not named in the record. Potency, µM (top dose mostly 57.9 µM), for the others: top-dose signal change, negative = less light. actives 1.2% (n = 410,000). AID 1159524, 2015; active = well fitted falling curve with a large enough effect; inconclusive = small, poorly fitted or top-dose-only effect; inactive = no such curve, though single readings can be large or run the other way; tested in HEK293T cells; also: % is scaled to controls: 0 for no effect and ±100 for the full control effect; nearly all actives have a fitted effect of over 45% in size; luciferase light after 4 h
NS1 function inh: qHTS Assay for Inhibitors of Influenza NS1 Protein Function. S. cerevisiae slowed by influenza A NS1, growth recovery by OD600. Potency, µM (top dose mostly 46.1 µM), inactives show at the highest dose activity, positive = more growth. actives 0.4% (n = 270,000). AID 2326, 2010; active means well fitted rising curve with a large enough effect; inconclusive means small, poorly fitted or top-dose-only effect; inactive means no such curve, though single readings can be large or run the other way; also: nearly all actives have a fitted effect of over 50% in size
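Read-out: OD600 growth recovery of NS1-expressing budding yeast. Cells grown overnight at 30C in -URA glucose medium, washed, resuspended and diluted 1:100 in 2% galactose assay medium, pH 6.0. Same strain lacking NS1 served as positive control.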
MARV entry inh: qHTS for inhibitors of binding or entry into cells for Marburg Virus. Marburg virus pseudotyped entry inhibition, cell reporter; control for the full effect not named in the record; about a third of the inactives were read at about 46 µM. actives 1.8% (n = 300,000). AID 540276, 2011. Potency, µM (doses to about 37.8 µM), for inactives: at the highest dose activity change, negative = inhibition, actives largely listed as inhibitors; active = well fitted inhibition curve with a large enough effect; inconclusive = small, poorly fitted or top-dose-only effect, or effect the other way; inactive = flat fitted curve, though single readings scatter; tested in HEK293 cells; about a fifth of its hits are not listed in these tables; also: % is scaled to controls: 0 for no effect and ±100 for the full control effect; luciferase read-out
Cruzain noTriton: qHTS Assay for Promiscuous and Specific Inhibitors of Cruzain (without detergent) | Potency, µM, for inactives: max response, negative = inhibition, usual class: inhibitors | actives 2.3% (n = 200,000) | Cruzipain (Trypanosoma cruzi), P25779 | AID 1476, 2009 | purified cruzain, Z-FR-AMC fluorescence, no detergent;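 also: plate controls were enzyme without inhibitor for no effect and buffer without enzyme for full effect; nearly all actives have a fitted effect of over 40% in size; top concentration of the series not given in the record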
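Purified cruzain at 1.5 nM, pre-incubated 15 min with compound at room temperature in 100 mM sodium acetate pH 5.5, 5 mM DTT, 0.00005% Triton X-100. Reaction started with 2 uM Z-FR-AMC; AMC fluorescence increase over 60 s gives rate.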
RE007 growth inh: qHTS Assay for Inhibitors of the HIV-1 protein Vpr | S. pombe RE007 Vpr strain, BacTiter-Glo ATP luminescence, 24 h; control for the full effect not named in the record | Potency, µM (titrated, usually from 92.2 µM), for the others: at the highest dose activity change, negative = less growth | actives 0.21% (n = 360,000) | AID 651644, 2012; active = well fitted falling curve with a large enough effect; inconclusive = small, poorly fitted or top-dose-only effect; inactive = no such curve, though single readings can be large or run the other way;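 also: % is scaled to controls: 0 for no effect and ±100 for the full control effect; nearly all actives have a fitted effect of over 50% in size; the assay follows cell death caused by Vpr and the record does not say whether a fall means rescue or toxicity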
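Fission yeast strain RE007, carrying one chromosomally integrated HIV-1 vpr copy, was seeded at OD 0.01 in PMG+AL medium with 23 nL pinned compound. After 24 h at 30 °C and 99% humidity, viability was read by BacTiter-Glo luminescence.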
LASV entry inh: qHTS for Inhibitors of binding or entry into cells for Lassa Virus; Lassa virus pseudotype entry inhibition, cell reporter; control for the full effect not named in the record; Potency, µM (top dose mostly 37.9 µM), inactives show at the highest dose activity change, negative = inhibition, hits mostly inhibitors; actives 1.2% (n = 300,000); active means well fitted inhibition curve with a large enough effect; inconclusive means small, poorly fitted or top-dose-only effect, or effect the other way; inactive means flat fitted curve, though single readings scatter; tested in HEK293 cells; also: % is scaled to controls: 0 for no effect and ±100 for the full control effect; nearly all actives have a fitted effect of over 50% in size; luciferase read-out
SARS PLP yeast: qHTS of Yeast-based Assay for SARS-CoV PLP | actives 0.19% (n = 330,000) | S. cerevisiae expressing SARS-CoV PLpro, growth rescue; control for the full effect not named in the record | Potency, µM (doses to about 32.9 µM), for inactives: top-dose activity, positive = growth rescue; active means well fitted rising curve with a large enough effect; inconclusive means small, poorly fitted or top-dose-only effect; inactive means no such curve, though single readings can be large or run the other way; also: 0% is about no effect; nearly all actives have a fitted effect of over 55% in size; growth read by luminescence after 48 h
* hit, by the source's call; u = inconclusive; x = no result given; & = joins results of further samples; [ ] = remark or other dose. Unless noted, calls follow the shape of the dose curve; as a rule, active = well fitted curve in the direction sought with a large enough effect; inconclusive = small, poorly fitted or top-dose-only effect, or another doubt; inactive = no such curve, though single readings can be large; an effect the other way counts as inactive or inconclusive. Potency is read from the fitted curve at half-maximal effect.

SMILES	Cruzain Triton	2A StopGo	NS1 function inh	MARV entry inh	Cruzain noTriton	RE007 growth inh	LASV entry inh	SARS PLP yeast
Cc1nn(C)c(C)c1CN(C)C(=O)c1cnn2c1NC(c1ccccc1)CC2C(F)(F)F (stereo not drawn)	1.3%	-21.3%	-5.9%	-18.2%	u	-1.6%	u	-1.1%
COc1cccc(/C=N/NC(=O)c2nnn(-c3nonc3N)c2CN(C)c2ccccc2)c1	x	-12.0%	-0.1%	x	x	2.0%	x	-1.8%
CCN(CC)CCCNC(=O)COc1ccc2oc3c(c2c1)CCCC3	x	-12.9%	5.7%	x	x	-0.9%	x	-1.4%
C/C(=N\Nc1nc2ccccc2[nH]1)c1cccs1	u	1.0%	-19.1%	u	25.1µM*	-2.3%	u	1.9%
CC(C)C12CN3CC(C(C)C)(CN(C1)C3c1ccc(OCc3ccccc3)cc1)C2=O (stereo not drawn)	1.9%	-1.4%	x	2.4%[46.1 µM]	10.1%	x	24.4%[46.1 µM]	x
Cc1ccc(NC(=O)Cc2nc(CSc3nnc(-c4ccc5c(c4)OCO5)o3)cs2)cc1	3.7%	2.3%	-7.2%	2.7%&2.7%	-29.5%	0.1%	-1.1%	2.4%
Cc1noc(C)c1S(=O)(=O)N(C)CC(=O)Nc1ccc(F)cc1	3.9%	-25.5%	1.7%	-14.4%	3.6%	-9.6%	8.2%	1.4%
O=c1nc(-c2ccccc2Cl)c2cc(F)ccc2[nH]1	x	-7.0%	13.8%	x	x	3.8%	x	4.2%
Cc1cc(OC(=O)N(C)C)n(-c2ccccc2)n1	x	-8.3%	2.2%	-28.0%[46.1 µM]	x	24.2%	18.0%[46.1 µM]	-1.4%
COC(=O)Nc1ccc(NC(C)=O)cc1	3.9%	15.4%	14.1%	-1.2%	-0.3%	-8.8%	2.3%	6.7%

Gathered by group: the entries above with a halogen
SMILES	Cruzain Triton	2A StopGo	NS1 function inh	MARV entry inh	Cruzain noTriton	RE007 growth inh	LASV entry inh	SARS PLP yeast
Cc1nn(C)c(C)c1CN(C)C(=O)c1cnn2c1NC(c1ccccc1)CC2C(F)(F)F (stereo not drawn)	1.3%	-21.3%	-5.9%	-18.2%	u	-1.6%	u	-1.1%
Cc1noc(C)c1S(=O)(=O)N(C)CC(=O)Nc1ccc(F)cc1	3.9%	-25.5%	1.7%	-14.4%	3.6%	-9.6%	8.2%	1.4%
O=c1nc(-c2ccccc2Cl)c2cc(F)ccc2[nH]1	x	-7.0%	13.8%	x	x	3.8%	x	4.2%

(more compounds)
SMILES	Cruzain Triton	2A StopGo	NS1 function inh	MARV entry inh	Cruzain noTriton	RE007 growth inh	LASV entry inh	SARS PLP yeast
C#CC(CCN1CCCCC1)(OC)c1ccccc1 (stereo not drawn)	x	71.8%[activator]	2.9%	x	x	1.2%	x	2.5%
Cc1cc(C)nc(NNS(=O)(=O)c2c(F)cc(F)cc2Br)n1	x	-13.0%	x	14.9%	x	-10.4%	-9.6%	2.2%
CCOC(=O)N1CCN(C(=O)C2CCN(S(=O)(=O)c3cc(Cl)ccc3Cl)CC2)CC1	2.5%	-27.7%	-47.0%	9.0%	u	7.2%	-12.7%	-5.8%
COc1ccc(NC(=S)Nc2ncccc2C)c(OC)c1	-3.6%	x	-63.1%	-28.6%	-8.1%	11.6%	-39.2%	6.2%
CCc1ccccc1N1C(=O)C2C3C=CC(CC3)C2C1=O (stereo not drawn)	x	-9.0%	3.6%	x	x	3.5%	x	0.6%
Clc1ccc(/C=N/NC2=Nc3cccc4cccc2c34)cc1	-5.4%	13.1%	10.6%	u	u	11.1%	u	-23.9%
COc1cccc2cc(C(=O)OCC(=O)NCc3ccc4c(c3)OCO4)c(=O)oc12	x	23.7%	-3.2%	x	x	-7.0%	x	-0.2%
COc1ccc([N+](=O)[O-])cc1N(CC(=O)O)S(C)(=O)=O	x	-3.6%	0.1%	3.7%	x	-0.5%	-17.5%	0.2%
Cc1ccc(C)c(OC(=O)CSc2nnc(CNC(=O)c3ccccc3)o2)c1	-7.2%	-12.8%	x	-11.4%[46.1 µM]	u	x	-3.0%[46.1 µM]	x
COc1ccc(/C=C/C(=O)c2ccc(Cl)cc2)c(OC)c1	-6.1%	0.4%	13.0%	u	0.6%	-1.7%	14.5%	-10.4%
COc1ccc(N2CCN(C(=O)c3cc(C)oc3C)CC2)cc1	x	-20.0%	-3.2%	x	x	1.7%	x	-3.4%
O=c1[nH]c(=O)n(C2CCCO2)cc1Br (stereo not drawn)	3.3%	0.0%	1.7%	19.0%	0.7%	12.2%	7.2%	1.1%
CCOc1ccccc1C1CC(=O)NC2=C1C(=O)CC(C)(C)C2 (stereo not drawn)	-8.3%	-23.7%	-5.5%	-29.6%	6.7%	-2.9%	4.2%	-7.4%
CCN(CC)CCOC(=O)c1cccc(OC)c1	2.2%	2.4%	-5.9%	-6.6%	6.3%	5.1%	7.8%	5.6%
Cc1cc2cc(CN(CC3CCCO3)C(=S)NCc3ccco3)c(=O)[nH]c2cc1C (stereo not drawn)	-7.0%	-19.0%	7.4%	-14.6%	14.0%	9.1%	-14.7%	-18.5%
Cc1cc(C)cc(N(CCC#N)C(=O)CN2C(=O)NC3(CCCC3)C2=O)c1	x	4.7%	-13.1%	u	x	3.7%	0.0%	0.2%
CCOc1ccc(NC(=O)COc2ccc(C(=O)N3CCC(C(N)=O)CC3)cc2OC)cc1	x	1.3%	x	4.6%	x	-12.1%	-1.1%	1.7%
CCOC(=O)c1c(S(=O)(=O)N(C)C2CCCCC2)c(C)n(C)c1C	x	67.9%[activator]	7.1%	x	x	-4.3%	x	-7.0%
CCOc1ccc(N2C(=O)CC(Cc3cc(C)cc(C)c3)C2=O)cc1 (stereo not drawn)	x	-9.2%	-10.8%	x	x	-7.7%	x	0.4%
Cc1ccc(/C=C/C(=O)O)cc1S(=O)(=O)NCCCO	4.8%	-5.7%	11.2%	0.3%	1.9%	-1.7%	-0.3%	2.8%
Fc1cccc(NC(=S)NCc2ccccc2Cl)c1	x	75.5%[activator]	-8.3%	3.5%	x	0.0%	u	-2.9%
COc1ccc(-n2cc(CN3CCC(OC)CC3)c(-c3cccc(F)c3)n2)cc1	x	-24.2%	6.2%	u	x	-16.1%	-16.4%[46.1 µM]	-1.7%
N#CCCN(C(=O)COC(=O)CNC(=O)C12CC3CC(CC(C3)C1)C2)c1ccccc1	x	-3.9%	x	-4.9%	x	6.5%	1.8%	2.0%
C/C(=C/C(=O)N1CCc2ccccc21)C(=O)O	-1.6%	-13.4%	15.3%	u	-2.4%	9.7%	2.8%	17.2%
Cc1ccc(C(=O)CNc2cccc(Cl)c2)cc1	-0.5%	32.8%[activator]	-16.2%	-0.6%	-23.0%	-6.8%	4.2%	3.0%
CC(=O)Nc1ccccc1C(=O)C(=O)Nc1ccccc1	-1.1%	10.5%	5.8%	u	1.2%	-2.8%	4.8%	1.8%
CC(C)C(=O)Nc1ccc(NC(=O)c2ccc3c(c2)OCO3)cc1	x	43.5%	4.8%	x	x	-8.7%	x	-1.3%
COc1ccc(Br)cc1C(=O)NC(=S)Nc1c(C)n(C)n(-c2ccccc2)c1=O	x	-23.0%	-33.4%	-2.3%	x	-15.8%	-11.1%	-9.4%
COc1cc(NC(=O)Cc2cccs2)c(C(=O)O)cc1OC	x	1.4%	6.2%	u	x	2.6%	21.7%[46.1 µM]	-0.8%
CCc1ccc(NC(=O)Cn2nnc(C(=O)Nc3cc(C)ccc3OC)c2N)cc1	-1.5%	7.8%	x	x	-20.1%	x	14.5%[46.1 µM]	x
COC(=O)c1ccccc1NC(=O)c1onc(C)c1Cl	x	-14.2%	-0.3%	x	x	-3.5%	x	0.2%
COc1ccc(CN2C(=O)N(c3cccc(C)c3)C(=O)C2CC(=O)Nc2ccc(F)cc2)cc1OC (stereo not drawn)	1.0%	-27.5%	x	6.3%[46.1 µM]	7.5%	x	-5.8%[46.1 µM]	x
CC(=O)Nc1cccc(NC(=O)C2CCCN2C(=O)Nc2cccc(F)c2)c1 (stereo not drawn)	4.3%	7.6%	0.7%	14.1%	0.5%	-6.3%	17.8%	4.7%
Cc1cc(Oc2ccccc2)nc(SCC(=O)Nc2ccc(Cl)cc2Cl)n1	-5.2%	-19.1%	4.1%	u	2.0%	16.6%	9.0%	5.9%[6.58 µM]
Cc1cccc(N(Cc2ccccc2)C(=O)c2ccccc2S(C)(=O)=O)c1	x	0.0%	-7.0%	-25.8%[46.1 µM]	x	0.7%	-28.0%[46.1 µM]	3.1%
CC1CCN(c2nnc(-n3cccc3CNc3cccc(F)c3)s2)CC1	-6.7%	u	x	x	1.3%	x	1.1%[46.1 µM]	x
CC(C)CCNC(=O)CNC(=S)N(CCCN1CCOCC1)Cc1cccs1	0.3%	3.1%	-2.5%	11.3%	-4.7%	6.2%	u	-25.2%
CC1CCN(Cc2c(C(=O)N/N=C/c3ccc(C(F)(F)F)cc3)nnn2-c2nonc2N)CC1	x	-18.9%	-8.6%	u	x	-9.2%	-22.3%[46.1 µM]	-2.2%
COc1ccccc1N1C(C)=CC(=C(C#N)c2nc3ccccc3s2)C=C1C	-6.3%	0.0%	8.1%	u	u	-0.6%	26.0%	17.5%
O=C(c1cccc(-n2cccc2)c1)N1CCN(S(=O)(=O)c2ccccc2Br)CC1	x	u	x	-4.5%[46.1 µM]	x	-4.2%	u	-2.5%
O=C1CC(N2CCN(c3ccc(S(=O)(=O)N4CCCC4)cc3)CC2)C(=O)N1c1ccc(F)cc1 (stereo not drawn)	1.3%	u	-21.0%	8.2%&8.2%	u	-10.7%	3.7%	-12.4%
